Source: PubChem BioAssay
ugtP null kill: growth inhibition of S. aureus ugtP deletion strain | growth inhibition, % (no concentration beside the values) | actives 0.54% (n = 330,000) | S. aureus RN4220 ugtP deletion, OD600 growth, 16 h; some inactives read as strong as hits;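 active = z-score under -3 and OD600 up to 0.15 on both plates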;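 also: plate controls were untreated wells for no effect and antibiotic for full effect; wells of about 80 µL received 100 nL stock; the first replicate is given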
PrP UTR inh: inhibition of PrP 5' UTR reporter expression. cell-based PrP 5' UTR mRNA reporter, plate reader. inhibition, % (no concentration beside the values). actives 0.35% (n = 340,000). AID 488862;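 active = every replicate at 50% or more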;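 also: 0 = median of the neutral control wells; tested in H4 reporter cells; numbers are from one replicate; inactives centre near -14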
Autofluor counter: flagged as autofluorescent in microsphere protease counterscreen; compound autofluorescence counterscreen, microsphere flow cytometry; hits give high values; fluorescence intensity (no concentration beside the values); actives 3.1% (n = 360,000); AID 624483;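 active = at least 3 SD above the mean of all compounds, about 16000 in these data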;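 also: 100 nL of 1 mM stock went into each well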
Mtb hypoxia inh: inhibitors of hypoxia-regulated fluorescent reporter in Mycobacterium tuberculosis. M. tuberculosis hypoxia-regulated fluorescent reporter, fluorescence. fluorescence inhibition, % (no concentration beside the values). actives 0.1% (n = 300,000);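 active = 35 to 45% if threefold the growth effect, above 45% if 1.5-fold the growth effect; inactive = the rest, general growth blockers included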;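 also: wells of about 50 µL received 100 nL stock; 0% = vehicle wells and 100% = reference inhibitor wells; whole bacteria with a GFP reporter of the hypoxia response; strong numbers were not always called active; many hits fall short of the cut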
RN4220 kill: S. aureus RN4220 growth inhibition. AID 1259311. OD600, 16 h. inhibition, % (no concentration beside the values). actives 0.33% (n = 330,000);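 active = z-score of -3 or lower and OD600 up to 0.18 on both plates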;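 also: plate controls were untreated cells for no effect and reference antibiotic for full effect; stock transfer was 100 nL into about 80 µL; one replicate is shown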
BJeLR lethal: BJeLR cell viability loss; AID 1554; inhibition, % (test concentration not listed); actives 0.17% (n = 300,000); BJeLR (HRASV12) viability, CellTiter-Glo ATP luminescence, 48 h; reference of the scale not given here;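 active = replicate mean above 50%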;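 also: 50 nL library stock added to about 25 µL; numbers are from one replicate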
Mtb hypoxia inh growth: also measured in Mtb hypoxia inh; calls as there; growth inhibition, %; measured here: M. tuberculosis growth (absorbance);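 0% = vehicle and 100% = reference antibiotic; read after six days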
* = called active by the depositor; x = not tested or not shown.

A first look:
1: NC(=O)NN=Cc1sc(N2CCCCC2)nc1-c1cccs1
2: COc1ccccc1NC(=O)/C(C#N)=C/c1cc([N+](=O)[O-])ccc1N1CCCC1
3: CC(=O)Nc1cccc(N2C(=O)CC(Cc3ccccc3)C2=O)c1 (configuration not stated)
4: CCCCC(=O)NC(=S)Nc1ccccc1C(=O)Nc1ccccc1

compound no.	1	2	3	4
ugtP null kill	-1	15	-9	21
PrP UTR inh	x	-14	3	-15
Autofluor counter	x	2813	2745	17346*
Mtb hypoxia inh	-2	9	2	4
Mtb hypoxia inh growth	-3	0	10	2
RN4220 kill	0.3	4.2	1.3	7.2
BJeLR lethal	x	-14	1	-9

The whole of this part, from the first entry:
1: NC(=O)NN=Cc1sc(N2CCCCC2)nc1-c1cccs1
2: COc1ccccc1NC(=O)/C(C#N)=C/c1cc([N+](=O)[O-])ccc1N1CCCC1
3: CC(=O)Nc1cccc(N2C(=O)CC(Cc3ccccc3)C2=O)c1 (configuration not stated)
4: CCCCC(=O)NC(=S)Nc1ccccc1C(=O)Nc1ccccc1
5: CCOCCCNC(=O)c1cn(CC(C)C)c(=O)c2c1c1ccccc1n2C
6: CC(=O)Nc1ccc(C)c(NC(=S)Nc2ccc(F)cc2)c1

compound no.	1	2	3	4	5	6
ugtP null kill	-1	15	-9	21	12	9
PrP UTR inh	x	-14	3	-15	13	-9
Autofluor counter	x	2813	2745	17346*	3775	6160
Mtb hypoxia inh	-2	9	2	4	15	5
Mtb hypoxia inh growth	-3	0	10	2	3	13
RN4220 kill	0.3	4.2	1.3	7.2	-0.4	4.2
BJeLR lethal	x	-14	1	-9	2	7

7: Cc1ccc(CSc2nc3sc(C)c(C)c3c(=O)n2Cc2ccco2)cc1
8: O=C(Nc1ccc2c(c1)OCCO2)NC1CCCCC1
9: Cc1c(C)c2ccc(OC(C)C(=O)NC3CC(C)(C)NC(C)(C)C3)cc2oc1=O (configuration not stated)
10: S=c1[nH]c(-c2ccccc2)cn1N=Cc1cccc2ccccc12
11: O=C(NCCS(=O)(=O)N1CCN(c2ccccc2F)CC1)c1ccco1
12: Cc1ccc2c(c1)CCCN2C(=O)c1c(C)noc1C

compound no.	7	8	9	10	11	12
ugtP null kill	0	1	4	0	6	10
PrP UTR inh	-19	-19	-2	x	-10	-2
Autofluor counter	9563	2784	5230	x	5217	22666*
Mtb hypoxia inh	11	16	0	13	-9	7
Mtb hypoxia inh growth	9	17	3	7	-2	-3
RN4220 kill	1.6	7.8	3.9	12	2.6	6.5
BJeLR lethal	-7	-6	2	x	-3	-15

13: Cc1cccc(C)c1NC(=S)NN=C1CC2CC=CC12 (configuration not stated)
14: Cc1ccc(S(=O)(=O)c2nc(-c3cccs3)oc2NCCCN(C)C)cc1
15: O=C(COC(=O)C1CCN(S(=O)(=O)c2cccc3cccnc23)CC1)c1ccc(F)cc1
16: COc1ccccc1C(OC(=O)c1cccs1)C(=O)NCC1CCCO1 (configuration not stated)
17: Cc1ccc2nc(-c3ccc(SCC(=O)Nc4nnc(C)s4)nc3)[nH]c2c1
18: Cc1ccoc1C(=O)NCCNC(=O)c1occc1C

compound no.	13	14	15	16	17	18
ugtP null kill	1	13	4	-5	7	3
PrP UTR inh	x	2	-15	-14	-74	-15
Autofluor counter	x	2158	6236	8768	2566	5874
Mtb hypoxia inh	16	x	x	-4	-3	10
Mtb hypoxia inh growth	15	x	x	10	-1	0
RN4220 kill	2.1	1.3	2.4	0.9	9.6	0.1
BJeLR lethal	x	2	-6	1	1	-7

19: Cc1ccc(S(=O)(=O)N2CCCCC2)cc1NC(=O)C1CCC1
20: FC(F)(F)c1ccc(CN2CC3C(c4ccc(C(F)(F)F)cc4)C4(c5cccnc5)CC3(C4)C2c2ccccc2)cc1 (configuration not stated)
21: COCCNC(=O)C(c1ccc(C)cc1)N(C(=O)CCC(=O)Nc1ccccn1)c1ccc(C)cc1 (configuration not stated)
22: N#Cc1c(/N=C/c2ccco2)oc(-c2ccccc2)c1-c1ccccc1
23: CC1(C)CC(Cc2nc(=S)[nH][nH]2)C(=O)O1 (configuration not stated)
24: COC(=O)[C@]1(C)NC(c2ccc(-c3ccccc3)cc2)C2C(=O)N(C)C(=O)C21 (some centres not stated)

compound no.	19	20	21	22	23	24
ugtP null kill	1	-1	-1	x	0	8
PrP UTR inh	-7	x	-13	6	-19	x
Autofluor counter	3865	x	4663	2768	2456	x
Mtb hypoxia inh	9	2	4	x	8	4
Mtb hypoxia inh growth	1	4	0	x	4	5
RN4220 kill	2.3	-0.5	-3.8	x	2.4	6.0
BJeLR lethal	x	x	-5	-3	3	x

25: CC(C)Oc1cc(-n2c(=S)[nH]c3ccccc3c2=O)c(Cl)cc1Cl
26: O=C(O)C1C2C=CC(C2)C1C(=O)Nc1ccc(C(=O)N2CCCCC2)cc1 (configuration not stated)
27: COc1ccc(N2CC(C(=O)Nc3nnc(C4CCCCC4)s3)CC2=O)cc1 (configuration not stated)
28: c1ccc2c(c1)oc1c(NCCN3CCOCC3)ncnc12
29: Cc1ccc(Cl)c(NC(=O)COC(=O)c2nn(-c3ccccc3)cc2O)c1Cl
30: COCCCNC(=O)C1CCN(C(=O)c2oc3cc4sc(N(C)C)nc4cc3c2C)CC1

compound no.	25	26	27	28	29	30
ugtP null kill	101*	-4	15	3	-5	13
PrP UTR inh	-17	-21	-21	-28	-16	-28
Autofluor counter	2711	7755	4126	11514	3483	4571
Mtb hypoxia inh	x	-1	11	-1	16	4
Mtb hypoxia inh growth	x	-7	1	-9	19	-4
RN4220 kill	100*	-0.5	-0.5	-0.7	-0.6	3.7
BJeLR lethal	11	x	2	0	x	5

31: O=C(COC(=O)c1c(F)cccc1Cl)NCC1CCCCC1
32: Cc1ccc2cc(CN(CCCN(C)C)C(=O)NCc3ccccc3)c(=O)[nH]c2c1C
33: O=C(Cc1cccs1)N[C@@H]1c2ccccc2CC[C@H]1OCc1ccccc1
34: CC(=O)c1ccc(NC(=O)N2CCc3ccccc3C2)cc1
35: Cc1[nH]c(C)c(S(=O)(=O)N2CCN(c3ccccc3F)CC2)c1C(=O)N1CCCCC1
36: COc1cc2ccccc2cc1C(=O)OCC(=O)c1c(N)n(C)c(=O)n(C)c1=O

compound no.	31	32	33	34	35	36
ugtP null kill	4	-3	16	8	10	-6
PrP UTR inh	-34	-6	-14	-39	-12	-11
Autofluor counter	3726	3393	2876	4189	4385	3934
Mtb hypoxia inh	-1	19	5	8	13	5
Mtb hypoxia inh growth	8	10	8	12	-2	-2
RN4220 kill	4.8	-14	1.7	-0.6	3.9	13
BJeLR lethal	x	2	x	105*	-6	x

37: O=c1cc(CN2CCN(S(=O)(=O)c3ccc4c(c3)OCCO4)CC2)c2ccc(O)cc2o1
38: O=C(Cn1nc2n(c1=O)-c1ccccc1SC2)NN=Cc1cccs1
39: Cc1ccccc1C(=O)NC(NCc1ccco1)C(Cl)(Cl)Cl (configuration not stated)
40: O=C(/C=C/c1ccc(Cl)cc1)NC(=S)Nc1ccc(N2CCOCC2)c(Cl)c1
41: NS(=O)(=O)c1ccc(CCNC(=O)C2CCN(S(=O)(=O)c3ccccc3)CC2)cc1
42: CC(C)c1ccc(N(CC(=O)NN=C2CCN(C)CC2)S(=O)(=O)c2ccccc2)cc1

compound no.	37	38	39	40	41	42
ugtP null kill	12	2	5	-4	4	5
PrP UTR inh	-28	x	-1	-17	-11	-33
Autofluor counter	4052	x	3177	2080	3415	5344
Mtb hypoxia inh	-2	3	14	7	-3	-6
Mtb hypoxia inh growth	0	11	2	4	6	1
RN4220 kill	2.7	-2.9	5.6	1.8	6.7	1.8
BJeLR lethal	4	x	-6	-5	5	1

43: COc1cc(OC)cc(C(=O)Nc2ccc(Br)cc2C(=O)c2ccccc2)c1
44: O=[N+]([O-])c1ccc(N2CCNCC2)cc1NC1CC1
45: CN(/N=C/c1ccc(O)cc1O)c1nc(-c2ccccc2)cc(-c2ccccc2)n1
46: O=C(Nc1cnn(Cc2ccc(Cl)c(Cl)c2)c1)c1nc2ncccn2n1
47: COc1cc(C=NNC(=O)c2nnn(-c3nonc3N)c2-c2cccs2)ccc1O
48: CCCCn1c(SCC(=O)N2CCCCC2)nc2cc(S(N)(=O)=O)ccc21

compound no.	43	44	45	46	47	48
ugtP null kill	19	-4	x	-7	11	-1
PrP UTR inh	-7	x	2	-23	x	-16
Autofluor counter	2216	x	10481	3209	x	19717*
Mtb hypoxia inh	-1	14	x	8	3	-8
Mtb hypoxia inh growth	3	2	x	16	2	-8
RN4220 kill	-0.8	-0.6	x	-16	4.3	0.9
BJeLR lethal	-9	6	-2	3	x	-4

49: CN(C)c1ccc(/C=C/C(=O)c2ccc(C(C)(C)C)cc2)cc1[N+](=O)[O-]
50: CCCCn1c(=O)n(Cc2cccc(F)c2)c(=O)c2c1ncn2Cc1ccco1
51: CC1=C(C#N)C(NC(=O)c2cccc(Cl)c2)(C(F)(F)F)C(=O)N1 (configuration not stated)
52: COc1cc2c(=O)n(CCC(=O)NCC3CCCO3)c(=O)n(CC(=O)Nc3ccc(F)cc3)c2cc1OC (configuration not stated)
53: COc1ccc(CC2(CO)CCN(Cc3cccn3-c3ccccn3)CC2)cc1
54: C#CCOCCOCCOCCNc1nc(N2CCN(C(=O)Cn3cc(CCO)nn3)CC2)nc(N2CCN(C(=O)C(C(C)CC)n3cc(CCCN=C(N)N)nn3)CC2)n1 (configuration not stated)

compound no.	49	50	51	52	53	54
ugtP null kill	27	11	-10	5	-8	-6
PrP UTR inh	-35	-32	-19	-19	-16	x
Autofluor counter	2039	2400	10520	3740	4739	x
Mtb hypoxia inh	11	x	0	1	2	-1
Mtb hypoxia inh growth	7	x	-4	0	0	2
RN4220 kill	1.9	-1.7	-0.3	2.1	3.0	4.5
BJeLR lethal	18	11	-22	-2	-5	x

55: C#C[C@@]1(O)CCC2C3CCC4=CC(=NOCC(=O)NC(CCC(N)=O)C(=O)O)CC[C@]4(C)C3CC[C@@]21C (some centres not stated)
56: C=C(C)COc1ccc(-c2[nH]ncc2Oc2ccccc2OC)c(O)c1
57: O=C(CNC(=O)c1ccc(S(=O)(=O)N2CCCC2)cc1)NN=Cc1ccccc1Cl
58: COc1cc(C=NNC(=O)c2sc3ccccc3c2Cl)ccc1OC(=O)c1ccc([N+](=O)[O-])cc1
59: CN(C(=O)CC1C(=O)NCCN1Cc1ccc(F)cc1Cl)C1CCCCC1 (configuration not stated)
60: O=C(N=C1N=C2C=CC=CN2Cc2ccccc21)c1ccc(S(=O)(=O)N2CCCC2)cc1

compound no.	55	56	57	58	59	60
ugtP null kill	1	9	-7	-1	1	-8
PrP UTR inh	x	-11	x	x	-10	-45
Autofluor counter	x	10361	x	x	7117	5480
Mtb hypoxia inh	-13	-9	6	7	3	-14
Mtb hypoxia inh growth	5	5	6	4	10	-11
RN4220 kill	3.0	-15	5.4	0.3	2.5	1.1
BJeLR lethal	x	-7	x	x	2	0

61: CCOC(=O)c1cc(N)cc([N+](=O)[O-])c1
62: CC1CCCCN1C(=O)CN1CCC(c2nc3ccc(Cl)cc3[nH]2)CC1 (configuration not stated)
63: COc1ccc(/C=C(/C#N)S(=O)(=O)c2ccc(C)cc2)cc1
64: COc1cc(CN(C)CCc2ccccc2)ccc1OCc1ccccc1
65: C=CCOc1c(CNc2ncn[nH]2)cccc1OCC

compound no.	61	62	63	64	65
ugtP null kill	-2	1	0	-6	9
PrP UTR inh	-3	-50	7	x	-8
Autofluor counter	2374	7373	8843	8500	2200
Mtb hypoxia inh	9	8	2	6	1
Mtb hypoxia inh growth	1	5	9	26	-5
RN4220 kill	9.0	-1.1	1.1	0.5	-0.8
BJeLR lethal	-2	25	-1	8	2
